# Screens from PubChem BioAssay.
# Lassa entry inh – inhibitors of Lassa virus binding or cell entry | Lassa virus pseudotype entry inhibition, cell reporter; control for the full effect not named in the record | Potency, µM (highest dose often 37.9 µM), for the others: top-dose activity change, negative = inhibition, hits mostly inhibitors | 300,000 tested, 1.2% active; active means well fitted inhibition curve with a large enough effect; inconclusive means small, poorly fitted or top-dose-only effect, or effect the other way; inactive means flat fitted curve, though single readings scatter; tested in HEK293 cells; also: % is scaled to controls: 0 for no effect and ±100 for the full control effect; nearly all actives have a fitted effect of over 50% in size; luciferase read-out
# NS1 inh – inhibitors of influenza NS1 protein function. S. cerevisiae slowed by influenza A NS1, growth recovery by OD600. Potency, µM (highest dose often 46.1 µM), for inactives: at the top dose activity, positive = more growth. 270,000 tested, 0.4% active. AID 2326; active means well fitted rising curve with a large enough effect; inconclusive means small, poorly fitted or top-dose-only effect; inactive means no such curve, though single readings can be large or run the other way; also: nearly all actives have a fitted effect of over 50% in size
#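 S. cerevisiae expressing influenza A NS1, grown in glucose, washed, then diluted 1:100 into pH 6.0 -URA galactose medium with 23 nl compound. Growth recovery read as OD600; NS1-free strain serves as control.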
# Cruzain inh noDet – blocks cruzain activity in detergent-free assay; Potency, µM, inactives show max response, negative = inhibition, actives largely listed as inhibitors; purified cruzain, Z-FR-AMC fluorescence, no detergent; P25779; 200,000 tested, 2.3% active; AID 1476;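 also: plate controls were enzyme without inhibitor for no effect and buffer without enzyme for full effect; nearly all actives have a fitted effect of over 40% in size; top concentration of the series not given in the record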
# Target sequence (P25779 123-467 limits assumed): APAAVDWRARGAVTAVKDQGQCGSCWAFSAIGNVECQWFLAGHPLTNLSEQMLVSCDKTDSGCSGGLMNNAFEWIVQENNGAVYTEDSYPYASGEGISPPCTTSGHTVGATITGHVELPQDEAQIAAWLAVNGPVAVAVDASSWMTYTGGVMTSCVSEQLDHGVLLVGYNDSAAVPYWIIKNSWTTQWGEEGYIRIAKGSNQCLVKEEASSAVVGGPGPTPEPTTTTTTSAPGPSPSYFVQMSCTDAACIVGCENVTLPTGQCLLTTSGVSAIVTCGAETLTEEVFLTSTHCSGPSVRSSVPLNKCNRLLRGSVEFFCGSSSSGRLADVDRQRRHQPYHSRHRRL
#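 Detergent-free condition (0.00005% Triton X-100) in acetate buffer pH 5.5 with DTT. 1.5 nM enzyme and compound were pre-mixed 15 min, then 2 uM Z-FR-AMC substrate added; reaction progress from fluorescence change between first and third reads (60 s).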
# MARV entry inh – Marburg virus entry inhibition. 300,000 tested, 1.8% active. Potency, µM (doses to about 37.8 µM), for inactives: at the top dose activity change, negative = inhibition, hits mostly inhibitors. Marburg virus pseudotyped entry inhibition, cell reporter; control for the full effect not named in the record; about a third of the inactives were read at about 46 µM; active = well fitted inhibition curve with a large enough effect; inconclusive = small, poorly fitted or top-dose-only effect, or effect the other way; inactive = flat fitted curve, though single readings scatter; tested in HEK293 cells; about a fifth of its hits are not listed in these tables; also: % is scaled to controls: 0 for no effect and ±100 for the full control effect; luciferase read-out
# RE007 growth inh – less growth of the S. pombe RE007 Vpr strain. S. pombe RE007 Vpr strain, BacTiter-Glo ATP luminescence, 24 h; control for the full effect not named in the record. Potency, µM (series often up to 92.2 µM), without a hit: top-dose activity change, negative = less growth. 360,000 tested, 0.21% active. AID 651644; active = well fitted falling curve with a large enough effect; inconclusive = small, poorly fitted or top-dose-only effect; inactive = no such curve, though single readings can be large or run the other way;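 also: % is scaled to controls: 0 for no effect and ±100 for the full control effect; nearly all actives have a fitted effect of over 50% in size; the assay follows cell death caused by Vpr and the record does not say whether a fall means rescue or toxicity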
#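 Fission yeast strain RE007, carrying one chromosomally integrated HIV-1 vpr copy, was seeded at OD 0.01 in PMG+AL medium with 23 nL pinned compound. After 24 h at 30 °C and 99% humidity, viability was read by BacTiter-Glo luminescence.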
# Cruzain inh Det – inhibitors of Trypanosoma cruzi cruzain with detergent; P25779; purified cruzain, Z-FR-AMC fluorescence, 0.01% Triton; Potency, µM, for the others: max response, negative = inhibition, hits mostly inhibitors; 200,000 tested, 0.43% active;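 also: plate controls were neutral wells for no effect and buffer without enzyme for full effect; nearly all actives have a fitted effect of over 40% in size; top concentration of the series not given in the record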
#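 Detergent-containing arm of a paired screen for aggregation-based inhibition: 0.01% Triton X-100 present. Cruzain at 1.5 nM cleaved 2 uM Z-FR-AMC at pH 5.5 with 5 mM DTT; AMC fluorescence gain over 60 s measured activity.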
# 2A StopGo – FMDV 2A StopGo reporter, luciferase signal; human cells with a luciferase reporter of 2A StopGo recoding; control for the full effect not named in the record; Potency, µM (titrated, usually from 57.9 µM), for the others: top-dose signal change, negative = less light; 410,000 tested, 1.2% active; AID 1159524; active = well fitted falling curve with a large enough effect; inconclusive = small, poorly fitted or top-dose-only effect; inactive = no such curve, though single readings can be large or run the other way; tested in HEK293T cells; also: % is scaled to controls: 0 for no effect and ±100 for the full control effect; nearly all actives have a fitted effect of over 45% in size; luciferase light after 4 h
# SARS PLP yeast – inhibitors of SARS-CoV papain-like protease in yeast | AID 485353 | 330,000 tested, 0.19% active | Potency, µM (top dose mostly 32.9 µM), for the others: at the highest dose activity, positive = growth rescue | S. cerevisiae expressing SARS-CoV PLpro, growth rescue; control for the full effect not named in the record; active means well fitted rising curve with a large enough effect; inconclusive means small, poorly fitted or top-dose-only effect; inactive means no such curve, though single readings can be large or run the other way; also: 0% is about no effect; nearly all actives have a fitted effect of over 55% in size; growth read by luminescence after 48 h
# An asterisk follows results filed as active; ? = inconclusive; · = no result given; & = joins results of further samples; [ ] = dose if it differs, or a comment. Unless noted, calls follow the shape of the dose curve; as a rule, active = well fitted curve in the direction sought with a large enough effect; inconclusive = small, poorly fitted or top-dose-only effect, or another doubt; inactive = no such curve, though single readings can be large; an effect the other way counts as inactive or inconclusive. Potency is read from the fitted curve at half-maximal effect. An unsorted share of the library; overall some 4.7% were active at least once.
SMILES,Lassa entry inh,NS1 inh,Cruzain inh noDet,MARV entry inh,RE007 growth inh,Cruzain inh Det,2A StopGo,SARS PLP yeast
O=C(O)c1cc(-c2ccc(O)cc2)nc2ccccc12,·,1.8%,-2.3%,-1.2%,·,7.2%,·,13.7%
CCOC(=O)c1cc2n(c1C)-c1ccccc1C2=O,12.9%,0.3%,5.1%,?,-9.1%,5.2%,48.9%[activator],-5.7%
Oc1ccc(C=Nc2cccc3ncccc23)c(O)c1,-24.0%,-32.3%,-7.1%,3.4%,-12.9%,-2.7%,-17.1%,-0.8%
O=C(CN1CCC(O)(c2cccc(F)c2)CC1)NCCc1c[nH]c2ccccc12,·,-83.1%,·,·,2.5%,·,-16.2%,3.8%
O=c1cccc(-c2ccccc2)[nH]1,16.4%,0.1%,-9.9%,?,-9.4%,-0.9%,-12.6%,-7.7%
CS(=O)(=O)N(Cc1ccccc1)c1ccc(C(=O)NCC2CCCO2)cc1 (stereo unspecified),?,-2.2%,-9.9%,3.0%,4.5%,6.0%,-17.6%,6.0%
CCCC1(C(=O)OCC)NC(c2ccc(N(C)C)cc2)C2C(=O)N(c3ccc(OCC)cc3)C(=O)C21 (stereo unspecified),0.4%,-32.6%,?,-17.7%&-17.7%,3.1%,-4.9%,-2.0%,3.4%
Cc1ccccc1C(=O)Nc1ccnn1C1CCN(C2CCSCC2)CC1,12.3%,-2.8%,·,-8.6%,0.2%,·,6.2%,-1.4%
CC1=C(C(=O)OCc2ccccc2)C(c2cccc([N+](=O)[O-])c2)NC(=O)N1CCCCCC(=O)O (stereo unspecified),-4.7%,-1.2%,?,5.5%,-9.7%,-7.4%&-4.9%,-10.4%,11.0%
O=C(c1ccco1)N1CCN=C1SCc1c(F)cccc1Cl,-20.8%,-1.9%,-7.6%,-3.0%[46.1 µM],-14.7%,-1.5%,-27.6%,?
Cc1ccc(N(C(=O)CNC(=O)c2ccco2)C(C(=O)NC2CCCC2)c2cccnc2)cc1 (stereo unspecified),?,0.7%,·,5.0%[46.1 µM],-6.4%,·,-12.3%,-5.1%
O=C(NC1CCCCCC1)c1cccc(N2CCCC2=O)c1,-25.2%,3.2%,-8.2%,?,-1.9%,-0.4%,12.3%,0.1%
O=C(OCc1nnc(-c2ccccc2)o1)C1CCN(S(=O)(=O)c2cccs2)CC1,21.0%,-6.0%,23.9%,12.0%[46.1 µM],-1.0%,-0.7%,2.9%,-1.6%
CN(C)CCO[C@@H](c1ccc(Cl)cc1)c1ccccn1,·,9.0%,-4.4%,·,0.8%,2.0%,-8.7%,6.7%
Cc1cc2ccccc2c(=O)n1CC(=O)NCC(=O)N1CCCC1,14.0%,1.5%,3.4%,17.4%,-5.6%,4.5%,-10.5%,3.1%
Cc1ccc(C)c(N2CCN(C(=O)CCS(=O)(=O)c3cc(Br)cc4c3N(C(=O)C3CC3)CC4)CC2)c1,-16.2%[46.1 µM],·,11.9%,?,·,-4.2%,-9.9%,·
COC(=O)C1C(c2ccccc2)C(C(=O)OCc2ccco2)C1c1ccccc1 (stereo unspecified),?,-35.6%,5.0%,20.6µM*,-17.9%,-7.1%,-13.1%,-77.1%
Cc1ccc2c(c1)N(CC(=O)N(Cc1ccccn1)Cc1ccco1)C(=O)C(C(C)C)O2 (stereo unspecified),?,-32.7%,?,?,0.5%,-12.4%,?,13.5%
Cc1cc(=O)[nH]c(SCn2nnc3ccccc3c2=O)n1,-3.6%,-0.1%,-0.3%,2.0%,1.1%,1.7%,11.8%,3.6%
CC(C)C(=O)Nc1ccnc(-c2cccnc2)n1,4.0%,-3.3%,-17.2%,?,-1.4%,6.5%,44.8%,-6.8%
COc1ccc(-c2nnc(SCC(=O)N3CCCC3)o2)cc1OC,7.3%,12.1%,·,-4.7%,-2.8%,·,7.1%,·
Cc1ccc(NC(=O)CCNS(=O)(=O)c2ccccc2F)cc1S(=O)(=O)N1CCOCC1,-2.6%,·,·,-21.2%,1.2%,·,36.5%[activator],1.0%
COc1cc2nc(CN(C)Cc3nc4ccccc4c(=O)[nH]3)[nH]c(=O)c2cc1OC,1.1%,11.8%,10.9%,6.7%,7.0%,0.9%,4.8%,2.4%
CCS(=O)(=O)N1CCC(C(=O)N2CCOCC2)CC1,10.4%,-0.8%,4.6%,7.0%,-9.1%,0.9%,·,1.1%
COc1cc(NC(=O)c2noc(C)c2[N+](=O)[O-])c(OC)cc1Cl,·,-8.1%,·,·,-11.5%,·,-6.2%,-0.5%
CCc1ccc(CNC(=O)C2Cc3cc(S(=O)(=O)N4CCCC4)ccc3N2C(C)=O)cc1 (stereo unspecified),·,-5.8%,·,·,17.8%,·,6.2%,4.3%
CCc1ccc(S(=O)(=O)c2cn(Cc3ccccc3)c3cc(F)c(F)cc3c2=O)cc1,22.5%[46.1 µM],·,1.1%,-8.8%[46.1 µM],·,0.3%,9.0%,·
O=C(CSc1nc2ccccc2s1)NC1CCS(=O)(=O)C1 (stereo unspecified),12.5%,7.0%,-6.9%,4.4%,-2.2%,9.8%,-16.1%,2.0%
O=P(CCO)(c1ccccc1)c1ccccc1,-0.9%,3.3%,·,0.8%[46.1 µM],-5.0%,·,3.1%,1.9%
CN1CCN(Cc2nc3cc(NC(=O)COc4ccc([N+](=O)[O-])cc4)ccc3n2C)CC1,·,-10.1%,·,·,-5.3%,·,2.2%,28.6%
O=[N+]([O-])c1ccc2c(c1)Nc1nc3ccccc3nc1N2,·,-62.4%,·,·,-21.1%,·,68.3%[activator],-9.9%
CCc1cccc(NC(=O)CSc2ncc3c(n2)-c2ccccc2N(CC)S3(=O)=O)c1,-19.7%[46.1 µM],·,-1.0%,·,·,1.5%,?,·
O=C1CCCN1CCCNC(=S)Nc1ccc(Cl)cc1Cl,0.2%[46.1 µM],·,·,-14.2%[46.1 µM],14.6%,·,6.1%,-0.2%
CCC[C@@H](OS(N)(=O)=O)[C@@H](Cc1ccccc1)C(=O)OCC,·,3.9%,·,·,11.9%,·,19.2%,0.7%
CCN(CCNC(=O)c1ccc2nc(-c3ccccc3NC(C)=O)c(=O)[nH]c2c1)c1ccccc1,·,-6.9%,4.9%,-1.2%,-6.6%,-0.7%,0.0%,15.2%
Cc1ccc(C)c(NC(=O)C(OC(=O)c2ccc(CO)cc2)c2ccccc2)c1 (stereo unspecified),-7.5%,·,·,-33.1%,1.6%,·,4.3%,1.0%
O=C(NCCCn1ccnc1)c1cc2c(s1)CCCC2,·,14.2%,·,·,-4.5%,·,-13.4%,3.7%
COc1ccc(NS(=O)(=O)NC(=O)c2cn(C)c3ccccc23)cc1,·,-12.9%,·,·,-25.1%,·,-0.9%,-4.0%
COc1ccc2nc(SCC(=O)N3CCCCCC3)c(C#N)cc2c1,-2.7%,-21.8%,-2.4%,17.2%,19.5%,-4.3%,17.4%,-13.7%
CC(C)CC(=O)Nc1ccccc1-c1nnn(CC(=O)N2CCc3ccccc3C2)n1,?,-6.5%,4.3%,?,5.0%,3.9%,-29.4%,-0.3%
COc1ccc(N(Cc2cc3cc(OC)ccc3[nH]c2=O)C(=O)c2cccnc2)cc1,0.0%,-40.4%,2.9%,?,-7.7%,2.0%,-26.8%,0.3%
O=C(CN1CCN(c2ccccn2)CC1)Nc1ccc(Cl)c(C(F)(F)F)c1,?,0.9%,11.5%,0.0%,-20.4%,-7.8%,-14.2%,-14.0%
O=C(/C=C/c1ccccc1)NCC(=O)N/N=C/c1ccccc1[N+](=O)[O-],-15.7%,·,·,3.6%[46.1 µM],0.0%,·,-0.1%,3.8%
CCOC(=O)c1ccc(N2C(=O)c3n[nH]c(C)c3C2c2cccnc2)cc1 (stereo unspecified),-16.3%,-19.6%,-1.6%,-8.3%,1.4%,0.3%,-7.7%,2.5%
O=C(O)CCc1ccc(-c2cccs2)n1NC(=O)c1cccs1,4.5%,5.6%,·,24.0%,-24.6%,·,3.1%,1.9%
CSCCC(NS(=O)(=O)c1ccccc1F)C(=O)N1CCCCCC1 (stereo unspecified),·,-1.7%,·,·,3.0%,·,-14.7%,0.9%
COc1cccc(C(=O)NCc2nnc(SCC(=O)Nc3nccs3)n2-c2cccc(C)c2)c1,-4.0%,-16.5%,16.3%,?,13.8%,0.9%,8.6%,-7.1%
COc1ccc(/C=C(\NC(=O)c2ccc(OCC(C)C)cc2)C(=O)OCc2ccco2)cc1,12.6µM*,22.6%,-5.8%,-39.9%,?,-9.0%,-12.1%,-13.2%
CC(C)C[C@H](NC(=O)c1nc[nH]c1C(=O)N1CCN(C(=O)OC(C)(C)C)CC1)C(=O)OC(C)(C)C,·,2.3%,·,·,0.8%,·,-16.5%,-0.1%
CN(C)c1cccc(C(=O)N(C)C2CCCN(Cc3ccccc3F)C2)c1 (stereo unspecified),·,1.1%,·,·,-0.4%,·,14.5%,-1.4%
N#CN(Cc1ccccc1)Cc1ccccc1,7.0%,0.2%,·,-1.6%[46.1 µM],-9.8%,·,12.3%,-0.8%
Cc1nc2c(sc(=S)n2Cc2ccco2)c(=O)n1CC(=O)Nc1cc(F)ccc1F,·,-0.4%,·,·,-25.1%,·,0.0%,13.0%
CCN(CC)S(=O)(=O)c1ccc(C)c(NC(=O)COC(=O)CCC(=O)c2cccs2)c1,15.3%,·,·,4.1%,-1.8%,·,6.3%,-2.1%
O=C(NCCCN1CCN(c2ccccc2)CC1)C1CCCN(c2ncnc3c2nc2n3CCCCC2)C1 (stereo unspecified),·,-4.5%,·,·,-6.9%,·,?,0.6%
COc1ccc(OC)c(/C=C2/Sc3ccccc3C2=O)c1,12.5%,-1.8%,·,-23.3%[46.1 µM],-10.9%,·,60.5%[activator],1.0%
C=CCn1c(COc2ccccc2)nnc1SCC(=O)Nc1ccc(S(N)(=O)=O)cc1,6.3%,0.7%,3.2%,9.9%&9.9%,4.7%,-3.1%,0.0%,1.2%
